gsp antag: antagonizes gsp, the McCune-Albright syndrome mutation | Potency, µM (titrated, usually from 76.9 µM), without a hit: at the highest dose activity change, negative = inhibition, usual class: inhibitors | gsp-mutant cells, cAMP HTRF, 30 min; control for the full effect not named in the record | AID 624288 | 0.4% of 340,000 active; active = falling curve of any shape with a large fitted effect; inconclusive = falling curve, mostly with a smaller effect; inactive = flat or rising curve; cell line not stated here;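 note: intracellular cAMP measured with PDE inhibitor Ro 20-1724 present during compound exposure; potency is the fitted concentration of half-maximal effect; % is set by controls: 0 for no effect and ±100 for the full control effect; nearly all actives have a fitted effect of over 65% in size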
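G418-selected cells were plated in DMEM/10% FBS for 16-24 h at 37C, then treated with compounds plus the PDE inhibitor […] (300 uM solution added) for 30 min at 37C. Intracellular cAMP was measured by HTRF after 30 min lysis at room temperature.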
ClpP mod: qHTS Assay for Activators of ClpP; ATP-dependent Clp protease proteolytic subunit (Bacillus subtilis (strain 168)), P80244; purified B. subtilis ClpP, FRET peptide cleavage, 20 min; Potency, µM (series often up to 57.5 µM), without a hit: at the highest dose activity change, negative = active; 1.9% of 340,000 active; AID 651965, 2013; active = well fitted falling curve with a large enough effect; inconclusive = small, poorly fitted or top-dose-only effect; inactive = no such curve, though single readings can be large or run the other way; note: potency is the fitted concentration of half-maximal effect; the source files actives as falling curves though it sought activators and does not explain the sign; nearly all actives have a fitted effect of over 65% in size; many hits overshoot -100%
Target sequence (P80244 whole entry, looked up): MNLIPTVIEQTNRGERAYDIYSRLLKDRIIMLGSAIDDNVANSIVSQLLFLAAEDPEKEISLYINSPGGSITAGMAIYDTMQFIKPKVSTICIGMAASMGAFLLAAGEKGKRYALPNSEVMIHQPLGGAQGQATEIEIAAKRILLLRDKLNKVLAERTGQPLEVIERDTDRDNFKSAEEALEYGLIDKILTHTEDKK
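FRET quenching reversal measured ClpP activation: 10 microg/mL B. subtilis ClpP at pH 8 with the FRET-FV decapeptide, read at 430 nm after 320 nm excitation. The 20-min minus 0-min signal was scaled between DMSO/no-enzyme wells and ADEP (5.8 microM final).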
gsp ag: agonists of gsp mutant (McCune-Albright syndrome); gsp mutant cells, cAMP HTRF, 30 min; control for the full effect not named in the record; Potency, µM (titrated, usually from 76.9 µM), for inactives: at the top dose activation (cAMP increase), hits mostly activators; AID 624287; 0.13% of 340,000 active; active = well fitted activation curve with a large enough effect; inconclusive = small, poorly fitted or top-dose-only effect, or another doubt; inactive = no such curve, though single readings can be large or run the other way; cell line not stated here;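 note: phosphodiesterase inhibitor Ro 20-1724 added with compounds to block cAMP breakdown; potency is the fitted concentration of half-maximal effect; nearly all actives have a fitted effect of over 60% in size; about a fifth of the inactives were tested at one dose only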
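Cells in DMEM/10% FBS with G418 were pretreated with compounds in DMSO plus […] (300 uM stock) for 30 min at 37C. cAMP was measured by HTRF (cAMP-d2 plus anti-cAMP antibody-K) after 30 min at room temperature.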
TRPML1 blocker: human mucolipin-1 channel inhibition; 0.02% of 390,000 active; TRPML1-inducible cells, Ca2+ dye fluorescence, FDSS; hits give low values; inhibition of EC80 agonist-evoked calcium signal; activity change, negative = inhibition, % (concentration not given with the values); AID 624415; in the data active means activity change below about -50%; inconclusive means about -30% to -50%; inactive means above about -30%;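 note: stimulus is agonist 54-4 at its EC80 concentration; % is set by controls: 0 for no effect and ±100 for the full control effect; compound concentration not given in the record; the text of the record puts the active cut at -80%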
Target sequence (Q9GZU1 whole entry, looked up): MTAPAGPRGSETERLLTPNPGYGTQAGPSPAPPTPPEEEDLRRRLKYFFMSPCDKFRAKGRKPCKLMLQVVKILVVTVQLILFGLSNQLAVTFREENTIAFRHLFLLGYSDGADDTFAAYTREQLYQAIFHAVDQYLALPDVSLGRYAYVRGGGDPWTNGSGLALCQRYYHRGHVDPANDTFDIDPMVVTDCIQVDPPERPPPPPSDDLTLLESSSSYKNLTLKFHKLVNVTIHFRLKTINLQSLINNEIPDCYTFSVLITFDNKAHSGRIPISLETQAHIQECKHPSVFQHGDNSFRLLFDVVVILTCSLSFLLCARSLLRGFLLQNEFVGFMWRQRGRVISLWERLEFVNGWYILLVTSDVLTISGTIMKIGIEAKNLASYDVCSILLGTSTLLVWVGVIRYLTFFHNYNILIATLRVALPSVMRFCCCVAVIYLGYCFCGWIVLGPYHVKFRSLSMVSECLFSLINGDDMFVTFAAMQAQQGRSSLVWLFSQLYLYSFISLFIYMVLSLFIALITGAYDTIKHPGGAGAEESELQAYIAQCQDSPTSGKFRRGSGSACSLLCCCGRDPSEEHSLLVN
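TRPML1-DL cells, Tet-induced overnight (~16 h, 37 °C) at 1,500 cells/well, were loaded with Ca8 no-wash dye plus quencher for 45-90 min at room temperature. Compounds were pinned during FDSS kinetic reading; agonist 54-4 at EC80 (4 uM final) then added.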
Menin-MLL FL inh: menin-MLL binding inhibition, fluorescein peptide; Fluorescence polarization, fluorescein-MLL peptide displacement from menin; AID 1766; FP activity change, % at 61.4 µM; 290,000 tested, under 10 active; inconclusive = falling polarisation curve, or a change in total fluorescence; inactive = total fluorescence flat and polarisation flat or rising; no compound was filed as active; the % refers to the polarisation; negative = inhibition;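 note: % of control where 0% means no effect; inhibitors lower the polarisation; unlabelled MLL peptide was the positive control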
TRPML1 agonist: human mucolipin-1 channel agonism; Q9GZU1; TRPML1-expressing cells, Ca2+ dye fluorescence, FDSS; host cell line not named in the record; reference of the full effect not given here; activation, % (test concentration not listed); 0.12% of 410,000 active; in the data active = activation above about 50%; inconclusive = about 30% to 50%; inactive = below about 30%; note: 0% is about no effect; the text of the record puts the active cut at 80%
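Calcium fluorescence on an FDSS kinetic reader gave the read-out. Tet-induced TRPML1-DL cells were plated overnight, dye-loaded (Ca8 with quencher, 45-90 min, room temperature, dark), then read 110 s after compound addition, and again 110 s after 4uM final 54-4 (EC80).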
* hit, by the source's call; [ ] = dose if it differs, or a comment.

Screening COc1ccc(NS(=O)(=O)c2ccc(N3CCOCC3)c(NC(=O)/C=C/C(=O)O)c2)cc1 returned gsp antag -7%, ClpP mod 1.7%, gsp ag -10%, TRPML1 blocker 3 and TRPML1 agonist 1.4.
Screening N#Cc1ccc2[nH]c(CO)c(-c3ccccc3)c2c1 returned gsp antag -6%, ClpP mod inconclusive, gsp ag 29%, TRPML1 blocker 14, Menin-MLL FL inh 7.5 and TRPML1 agonist 0.1.
For CCC(=O)NC(=S)Nc1cccc(NC(=O)CC)c1 the results were gsp antag -6%, ClpP mod -3.4%, gsp ag -2%, TRPML1 blocker 19, Menin-MLL FL inh inconclusive and TRPML1 agonist -0.4.
O=C(Cn1nc(C(F)(F)F)c2c1CCCC2)NCc1ccco1 was read as gsp antag -13%, ClpP mod -1.4%, gsp ag 25%, TRPML1 blocker -9, Menin-MLL FL inh 1.4 and TRPML1 agonist 1.5.
`COc1ccccc1N(C)S(=O)(=O)c1ccc(C(=O)OCC(=O)NCc2ccco2)cc1` gave gsp antag -20%, ClpP mod -0.1%, gsp ag -16%, TRPML1 blocker 4, Menin-MLL FL inh 2.4 and TRPML1 agonist -0.7.
Screening C[C@@H](NC(=O)C1(c2ccccc2)CCN(C(=O)OC(C)(C)C)CC1)C(=O)N[C@@H](Cc1ccccc1)C(=O)O returned gsp antag -2%, ClpP mod 2.1% and Menin-MLL FL inh -5.6.
For COc1ccccc1-n1c(CCC(=O)O)ccc1-c1ccccc1 the results were gsp antag -9%, ClpP mod -8.0%, gsp ag inconclusive, TRPML1 blocker 28, Menin-MLL FL inh 1.5 and TRPML1 agonist 0.2.
`CC1(C)Cc2c(cnn2-c2ccc(F)cc2)C(NC(=O)c2ccoc2)C1` (configuration not stated) gave gsp antag 1%, ClpP mod 0.4%, gsp ag 20%, TRPML1 blocker -14, Menin-MLL FL inh -0.1 and TRPML1 agonist -0.9.
`O=C(NCC(=O)N(c1cccc(F)c1)C(C(=O)NC1CCCC1)c1cccnc1)c1cccs1` (configuration not stated) gave gsp antag 8%, ClpP mod 0.2%, gsp ag 0%, TRPML1 blocker 5, Menin-MLL FL inh 0.4 and TRPML1 agonist 1.3.
Screening COc1cccc(-c2cccc(NC(=O)C3CCN(CC4CCOC4)CC3)c2)c1 (configuration not stated) returned gsp antag 5%, ClpP mod 0.0%, gsp ag -25%, TRPML1 blocker 11, Menin-MLL FL inh 3.4 and TRPML1 agonist 7.6.
`Cc1cccc(NC(=O)CCC(=O)N2CCOCC2)n1` gave gsp antag 5%, ClpP mod 1.0%, gsp ag -18%, TRPML1 blocker -5 and TRPML1 agonist -0.7.
For COc1ccc(/C=C(\NC(=O)c2ccc(OCC(C)C)cc2)C(=O)OCc2ccco2)cc1 the results were gsp antag 7%, ClpP mod -7.8%, gsp ag 0%, TRPML1 blocker 3, Menin-MLL FL inh -0.5 and TRPML1 agonist 0.7.
For COCc1nnc(NS(=O)(=O)c2ccc(Br)cc2)s1 the results were gsp antag 0%, ClpP mod -0.4%, gsp ag 8%, TRPML1 blocker -25, Menin-MLL FL inh -0.1 and TRPML1 agonist 0.0.
`COc1cccc(N2CCN(C(=O)c3cc4c(=O)n(Cc5ccco5)ccc4nc3C)CC2)c1` gave ClpP mod -11%, TRPML1 blocker -18 and TRPML1 agonist 3.1.
Screening N#Cc1ccccc1S(=O)(=O)N1CCN(C(=O)Cc2n[nH]c(=O)c3ccccc23)CC1 returned gsp antag -9%, gsp ag 25%, TRPML1 blocker 27 and TRPML1 agonist -0.9.
`O=C(CNCCc1ccc(Cl)cc1)Nc1ccc(C(=O)N2CCCCC2)cc1` gave gsp antag 9%, gsp ag 0%[15.4 µM], TRPML1 blocker 10, Menin-MLL FL inh 0.6 and TRPML1 agonist 0.4.
CC1CCN(C(=O)c2ncn3c2c(=O)[nH]c2ccccc23)CC1 was read as ClpP mod -20%, gsp ag -73%[inhibitor], TRPML1 blocker -8 and TRPML1 agonist 0.3.
`CCC(CC)c1nnc(NC(=O)CS(=O)(=O)Cc2ccccc2)s1` gave gsp antag -11%, ClpP mod -0.3%, gsp ag inconclusive, TRPML1 blocker 1 and TRPML1 agonist -0.2.
CC(=O)c1ccc(NC(=O)CCCN2C(=O)COc3ccc(C)cc32)cc1 was read as gsp antag -19%, ClpP mod 0.1%, gsp ag -15%, TRPML1 blocker -7, Menin-MLL FL inh 1.2 and TRPML1 agonist -0.8.
Screening CNS(=O)(=O)c1ccc(NC(=O)c2cc(-c3ccncc3)nc3ccc(Cl)cc23)cc1 returned gsp antag -6%, ClpP mod 0.8%, gsp ag -67%[inhibitor], TRPML1 blocker -18, Menin-MLL FL inh -0.5 and TRPML1 agonist 0.1.
`COc1ccc(Oc2ccc(C(F)(F)F)cc2NC(=O)c2ccc(C)cc2)cc1` gave gsp antag -1%, ClpP mod inconclusive, gsp ag -35%[inhibitor], TRPML1 blocker 72, Menin-MLL FL inh 4.9 and TRPML1 agonist 1.5.
Cc1ccc(NCCC(=O)c2cccc([N+](=O)[O-])c2)c(C)c1 was read as gsp antag -17%, ClpP mod -1.3%, gsp ag 7%, TRPML1 blocker 8, Menin-MLL FL inh 3.1 and TRPML1 agonist 0.6.
Cc1nn(Cc2ccc(Cl)cc2Cl)c(C)c1NC(=O)CCl was read as gsp antag -2%, ClpP mod -0.8%, gsp ag -10%, TRPML1 blocker -7, Menin-MLL FL inh 3.4 and TRPML1 agonist -0.2.
For COC(=O)CN1C(=S)N(c2ccc(F)cc2)C(=O)C1CC(=O)Nc1ccccc1 (configuration not stated) the results were gsp antag -2%, ClpP mod -1.0%, gsp ag -2%[15.4 µM], TRPML1 blocker 3, Menin-MLL FL inh 0.4 and TRPML1 agonist -0.4.
`CCc1ccc(-n2c(=O)c3cccnc3n2CC(=O)Nc2cc(OC)ccc2OC)cc1` gave ClpP mod 4.1%, TRPML1 blocker -5 and TRPML1 agonist -0.8.
For COc1ccc(CN2CCN(Cc3nc4ccccc4s3)CC2CCO)c(C)c1C (configuration not stated) the results were gsp antag -8%, ClpP mod 0.1%, gsp ag -56%[inhibitor], TRPML1 blocker -15, Menin-MLL FL inh -2.7 and TRPML1 agonist 1.3.
Screening Cc1ccc(NC(=O)c2ncn[nH]2)cc1 returned gsp antag 12%, gsp ag 9%[15.4 µM], TRPML1 blocker 11, Menin-MLL FL inh 0.2 and TRPML1 agonist 1.3.
For COc1ccc2cc(/C(C)=N/NC(=O)c3cc(-c4cccnc4)nc4ccccc34)ccc2c1 the results were gsp antag 3%, ClpP mod 4.2%, gsp ag 20%, TRPML1 blocker 3, Menin-MLL FL inh 7.5 and TRPML1 agonist 2.7.
`Nc1cc(C(=O)OCC(=O)NNC(=O)c2ccccc2)ccc1Cl` gave gsp antag -3%, ClpP mod inconclusive, gsp ag 16%[15.4 µM], TRPML1 blocker 9 and TRPML1 agonist -0.1.
COc1ccc(-c2csc(NC(=O)C3CSC4(C)CCC(=O)N34)n2)cc1 (configuration not stated) was read as gsp antag 5%, ClpP mod 0.1%, gsp ag -28%, TRPML1 blocker 3 and TRPML1 agonist 1.1.
For Cn1cc(CNC(=O)/C=C/c2ccc(Cl)cc2)cn1 the results were gsp antag 1%, ClpP mod 3.8%, gsp ag -47%[inhibitor], TRPML1 blocker -10, Menin-MLL FL inh -0.5 and TRPML1 agonist 0.6.
For COc1ccc(CNC(=O)CCc2c(C)nn(-c3ccc(N4CCCCC4)nn3)c2C)cc1 the results were ClpP mod -2.2%, TRPML1 blocker -11 and TRPML1 agonist -0.4.
Screening COc1ccc(CNC(=O)c2ccc(Cn3c(=O)c4cccn4c4cccnc43)cc2)c(OC)c1 returned ClpP mod inconclusive, TRPML1 blocker -4 and TRPML1 agonist -0.1.
For CCCOc1ccc(C2NC(=O)NC2=O)cc1 (configuration not stated) the results were gsp antag 4%[15.4 µM], ClpP mod 0.9%, gsp ag inconclusive, TRPML1 blocker -9, Menin-MLL FL inh -0.8 and TRPML1 agonist 0.7.
Screening Cc1cc(Nc2ccc(C)c(C)c2)c2ccccc2n1 returned gsp antag 2%, gsp ag -6%, TRPML1 blocker 35, Menin-MLL FL inh -1.0 and TRPML1 agonist 0.5.
Screening Cc1ccc(C)c(NC(=O)c2cnc3n(c2=O)CCS3)c1 returned gsp antag -1%, ClpP mod -2.6%, gsp ag 12%, TRPML1 blocker -6, Menin-MLL FL inh 4.6 and TRPML1 agonist 0.3.
For Cc1cccc(NC(=O)CS(=O)(=O)c2cn(C)c3ccccc23)c1 the results were gsp antag 0%, ClpP mod -2.5%, gsp ag -19%, TRPML1 blocker 17, Menin-MLL FL inh -0.6 and TRPML1 agonist -1.4.
Screening Cc1nc2scc(-c3ccccc3)c2c(=O)n1/N=C/c1ccco1 returned gsp antag -12%, ClpP mod -1.9%, gsp ag 3%, TRPML1 blocker -4, Menin-MLL FL inh 27 and TRPML1 agonist 2.0.
Cc1ccc(Nc2c(-c3ccc(N4CCOCC4)cc3)nc3cccc(C)n23)cc1 was read as ClpP mod 3.0%, TRPML1 blocker 18 and TRPML1 agonist 1.4.
For CCOc1cc(NC(=S)NCC(C)C)c(OCC)cc1NC(=O)c1ccco1 the results were gsp antag -23%, ClpP mod 7.9%, gsp ag 14%, TRPML1 blocker 0, Menin-MLL FL inh 4.6 and TRPML1 agonist 2.6.
CCOC(=O)CNC(=O)c1cccs1 was read as gsp antag 2%, ClpP mod -1.8%, gsp ag -4%, TRPML1 blocker 36, Menin-MLL FL inh 2.1 and TRPML1 agonist 0.5.
Screening O=C(NCc1ccco1)/C(=C\c1cccs1)NC(=O)c1cccs1 returned gsp antag 14%, gsp ag -11%[15.4 µM], TRPML1 blocker 35, Menin-MLL FL inh -6.2 and TRPML1 agonist 0.3.
Screening COc1cccc(-c2ncc3ccccc3c2COC(=O)c2cccc(Br)c2)c1 returned gsp antag -2%, ClpP mod -28%, gsp ag 2%, TRPML1 blocker 4 and TRPML1 agonist 0.5.
COc1ccc(NC(C)=O)cc1NC(=O)CSc1nnc(-c2ccc(F)cc2)n1N was read as gsp antag 8%, ClpP mod -2.7%, gsp ag -47%[inhibitor], TRPML1 blocker -3, Menin-MLL FL inh 0.4 and TRPML1 agonist 1.0.

Pulled one by one from above:
For Cc1cccc(NC(=O)CS(=O)(=O)c2cn(C)c3ccccc23)c1 the results were gsp antag 0%, ClpP mod -2.5%, gsp ag -19%, TRPML1 blocker 17, Menin-MLL FL inh -0.6 and TRPML1 agonist -1.4.
For Cn1cc(CNC(=O)/C=C/c2ccc(Cl)cc2)cn1 the results were gsp antag 1%, ClpP mod 3.8%, gsp ag -47%[inhibitor], TRPML1 blocker -10, Menin-MLL FL inh -0.5 and TRPML1 agonist 0.6.

Screening results as filed in PubChem.
